Assay outcomes as filed in PubChem.
LANA-H2A inh: blocks KSHV LANA binding to histone H2A/H2B | cell-free LANA-H2A/H2B peptide, fluorescence polarization | 320,000 tested, 0.6% active | Q9QR71 | inhibition, % (no concentration beside the values); in the data active = inhibition mostly above about 10%, no sharp cut-off; inactive = mostly below about 6.7%;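 note: stock transfer was 7.5 nL into about 10 µL; 0% = median of vehicle wells and 100% = median of positive control wells; one replicate is shown; the record names a cut of 25% in any replicate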
Beta cell apopt: blocks beta cell apoptosis; INS-1E cytokine-induced death, ATP luminescence, 48 h; percent of positive-control rescue, neutral wells zero; protection from apoptosis, % (concentration not given with the values); 300,000 tested, 0.8% active; AID 435005;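 active = all replicates at 75% or more, or half of them and the mean; inconclusive = half reach 75% but not the mean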;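 note: 0% = cytokine-treated negative control wells and 100% = positive control rescue; higher means more ATP so stronger rescue from cytokine killing; wells of about 40 µL received 100 nL stock; the first replicate is given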
rRNA inh HTS: selective bacterial rRNA inhibition in E. coli | E. coli WT GFP vs humanized-ribosome RFP mutants, fluorescence, 24 h; hits give low values; DMSO median 0, no signal -100 | GFP signal change (wild-type ribosome), % (concentration not given with the values) | 350,000 tested, 1.6% active;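 active = significant combined selectivity score with lowered wild-type GFP, culture density cut under 30%, mutant RFP and density less affected; inactive = any of these conditions unmet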; note: one replicate is shown; some compounds called inactive have numbers as strong as hits
A1 inh: inhibitors of the anti-apoptotic protein A1, read as caspase activation; MEF A1-2A-BIM cells, Caspase-Glo 3/7 luminescence, 3 h; percent of clofoctol response, vehicle zero; caspase activation, % (concentration not given with the values); 330,000 tested, 0.066% active; AID 2462;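 active = over half of replicate activation scores above 10%, or exactly half above 10 with the replicate mean above 10; inconclusive = replicate mean below 10 yet half the replicates above 10; inactive = over half of replicates below 10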;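 note: wells of about 30 µL received 50 nL stock; many hits fall short of the cut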
ALR inh: blocks human ALR sulfhydryl oxidase activity; P55789; purified ALR, DTT oxidation, H2O2 HRP-luminol luminescence; inhibition, % (no concentration beside the values); 290,000 tested, 3.8% active; AID 485317;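 active = mean and each replicate at 75% or more; inconclusive = only one of the two met; inactive = neither met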;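 note: stock transfer was 7.5 nL into about 7.5 µL; 0% = neutral wells and 100% = wells with inactivated enzyme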
Target sequence (P55789 whole entry, looked up): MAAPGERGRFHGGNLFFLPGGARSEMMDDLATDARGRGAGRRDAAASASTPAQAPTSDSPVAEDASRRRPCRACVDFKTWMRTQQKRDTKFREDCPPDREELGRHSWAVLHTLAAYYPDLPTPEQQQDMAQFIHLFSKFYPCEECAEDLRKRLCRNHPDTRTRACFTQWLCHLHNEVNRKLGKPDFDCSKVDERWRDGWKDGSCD
T cruzi repl: T. cruzi replication inhibition; T. cruzi beta-gal in NIH3T3, luminescence, 90 h; inhibition, % (no concentration beside the values); 300,000 tested, 1.4% active; AID 1885;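 active = mean inhibition across valid replicates above about 55%, limit read from the data; inconclusive = mean below that limit but half or more replicates reach it; inactive = mean below it, under half of replicates reach it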;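 note: signal also drops with host cell toxicity which is not excluded here; 0% = plate median of DMSO wells and 100% = zero luminescence signal; higher percent means less beta-gal luminescence so fewer parasites; stock transfer was 50 nL into about 50 µL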
Calb FLC: C. albicans growth modulation with fluconazole. growth inhibition, % (test concentration not listed). C. albicans CaCi-2 (fluconazole-resistant clinical isolate) + fluconazole, Alamar Blue growth, 48 h. 300,000 tested, 0.57% active;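 active = most replicates above 75%; inconclusive = exactly half above 75%; inactive = most below 75%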;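 note: all wells also contain fluconazole at 8 µg/ml as a sub-toxic cotreatment; 0% = median of DMSO wells and 100% = median of geldanamycin control wells; wells of about 8 µL received 7.5 nL stock; the first replicate is given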
B2AR ag: agonists of human beta-2 adrenergic receptor inducing internalization; 340,000 tested, 0.43% active; Am2.2-beta2AR cells, FAP receptor internalization, flow cytometry; reference of the scale not given here; response, % (test concentration not listed); P07550;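 active = response above a set limit, near 3 SD of response in nonfluorescent compounds, cut at about 42% in these data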;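 note: stock transfer was 100 nL into about 11 µL; a reference agonist was the positive control; negative values mostly stem from fluorescent compounds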
Target sequence (P07550 whole entry, looked up): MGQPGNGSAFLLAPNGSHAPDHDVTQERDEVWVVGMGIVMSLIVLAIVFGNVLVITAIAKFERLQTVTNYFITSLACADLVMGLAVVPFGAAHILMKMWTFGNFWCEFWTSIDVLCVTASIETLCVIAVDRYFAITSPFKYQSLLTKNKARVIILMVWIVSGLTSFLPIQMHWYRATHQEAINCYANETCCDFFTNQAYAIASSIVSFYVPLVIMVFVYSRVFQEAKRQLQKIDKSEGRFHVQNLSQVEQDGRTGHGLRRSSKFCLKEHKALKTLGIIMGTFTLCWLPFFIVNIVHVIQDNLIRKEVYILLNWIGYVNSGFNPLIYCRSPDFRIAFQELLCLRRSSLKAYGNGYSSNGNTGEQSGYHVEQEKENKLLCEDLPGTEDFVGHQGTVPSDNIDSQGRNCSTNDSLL
rRNA inh HTS OD600: also measured in rRNA inh HTS; calls as there; OD600 change, %; measured here: OD600 growth;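 optical density of the mix in the first replicate; 0 = DMSO median and -100 = no signal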
rRNA inh HTS RFP: recorded beside rRNA inh HTS, whose call it bears; RFP signal change, %; measured here: RFP humanized mutant strains;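 first replicate; 0 = DMSO median and -100 = no signal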
The depositor's hits bear a star; ? = inconclusive; nt = not tested or not shown; & = joins results of further samples. This is a subset; rates above refer to the full screens.

SMILES	LANA-H2A inh	Beta cell apopt	rRNA inh HTS	rRNA inh HTS OD600	rRNA inh HTS RFP	A1 inh	ALR inh	T cruzi repl	Calb FLC	B2AR ag
O=C(NCCc1ccccc1)C1CCCN1C(=O)Nc1cccc(Cl)c1 (stereo not drawn)	3.4	-5	1	-4	-5.8	-0.1	-12	-4	-9	-6
Cc1ccc(C(=O)c2cc([N+](=O)[O-])ccc2N2CCN(C)CC2)cc1	4.3	14	nt	nt	nt	0.0	1	2	-17	-7
O=C(NCC(=O)N1CCCCCCC1)c1ccco1	6.1	-2	8	17	-0.7	1.9	nt	nt	nt	-4
O=C(CN(Cc1ccco1)C(=O)c1cc(=O)[nH]c2ccccc12)Nc1ccccc1C(F)(F)F	-5.8	-6	nt	nt	nt	-1.1	-8	0	-11	-6
CCC(C)(C)NC(=O)CN(C(=O)C(=O)Nc1ccc2c(c1)OCCO2)N1CCOCC1	2.4	-4	3	9	0.7	-0.4	4	-6	0	-2
O=C(c1ccc(F)cc1)C1CCN(C(=S)Nc2ccccc2Cl)CC1	8.8	2	-16	-12	-3.4	0.6	-16	-5	0	-1
Cc1ccc(C(C)C)c(OCc2nn(CC(=O)c3ccc(OC(F)F)cc3)c3[n+]2CCCCC3)c1	-1.8	114*	nt	nt	nt	-0.2	-2	?	90*	3
CCC1=Nc2cc(C(=O)NCCCN3CCOCC3)ccc2Sc2ccccc21	-6.2	-6	-9	-9	-2.2	0.3	-1	26	-3	7
CN(Cc1cn(C)nc1-c1ccc(Oc2ccccc2)cc1)CC1COCCO1 (stereo not drawn)	-4.8	-7	3	-3	0.2	0.2	-4	5	3	3
CC(C)CC1NC(=O)N(CC(=O)N(C)C2CCCCC2)C1=O (stereo not drawn)	4.4	0	12	13	-5.7	0.2	nt	nt	nt	-3
CS(=O)(=O)N(CC(=O)NCCSCc1c(F)cccc1Cl)c1cccc([N+](=O)[O-])c1	3.5	5	nt	nt	nt	0.8	-23	-6	-2	7
COCC(=O)N1CCC(Oc2ccc(C(=O)N(C)Cc3nccs3)cc2)CC1	2.4	0	5	4	1.9	1.3	12	-6	-16	2
O=C(CCC(=O)NC1CCCCC1)NCc1ccc(F)cc1	1.7	-2	29	17	4.2	0.7	-10	-3	-11	4
COCCN1C(=O)C(O)=C(C(C)=O)C1c1ccc(OC)c(OC)c1 (stereo not drawn)	4.4	-7	nt	nt	nt	1.0	-8	5	-2	2
O=C(NCC1OCCc2ccccc21)C1COc2ccccc2O1 (stereo not drawn)	-5.7	6	nt	nt	nt	-0.2	-1	6	-2	-10
Cc1cc(C)cc(OCC(=O)Nc2ccc(N3CCCC3)cc2)c1	-1.4	4	nt	nt	nt	-0.4	-7	36	-19	0
CSc1ncccc1C(=O)Nc1cccc(C)n1	1.6	-1	8	5	-3.0	0.8	4	-11	-6	-2
CON(c1nc(N(C)C)nc(N(C)C)n1)S(=O)(=O)c1ccccc1Cl	0.5	-2	nt	nt	nt	0.3	-1	6	-12	7
CCOC(=O)C(=O)Nc1nnc(SCc2ccc(F)cc2)s1	2.6	0	-10	-3	-0.4	0.1	6	-1	-1	6
O=C(N/N=C/c1ccc(OC(=O)c2ccc3c(c2)OCO3)cc1)c1cncc(Br)c1	0.4	-2	nt	nt	nt	-0.1	-2	9	16	52*
CSc1ncc(Cl)c(C(=O)Nc2ccccc2C)n1	4.9	-1	11	13	0.0	-0.5	1	-11	1	-3
C/C(=N/NC(=O)c1ccc(Br)o1)C(C)C	0.2	-5	-1	3	0.0	0.2	-6	-5	-2	-10
CCCc1cc(C(=O)NC(C)C2CCCO2)cs1 (stereo not drawn)	-4.3	0	5	-7	-0.4	-0.3	-1	-14	2	-5
COc1ccc(/C=C2\C(=O)NCC(=O)N2C)cc1	14*	nt	16	23	0.8	0.9	nt	-11	4	nt
O=C(O)c1ccccc1C(=O)NCCc1c(C(=O)O)[nH]c2ccc(F)cc12	5.7	-1	3	2	-4.4	0.1	-2	7	15	0
Cc1nn(-c2ccc(F)cc2)c2sc(C(=O)OC3CCOC3=O)cc12 (stereo not drawn)	1.4	-5	nt	nt	nt	0.3	2	-7	-11	-14
CNC[C@@H]1Oc2ccc(NC(=O)Nc3ccccc3)cc2C(=O)N([C@@H](C)CO)C[C@H]1C	2.7	6	2&18	4&0	-1.6&-1.0	0.7	1	nt	nt	-4
COCCN(C)Cc1cn(-c2ccc(F)cc2F)nc1-c1ccccc1C	-1.3	nt	4	-3	-2.2	-0.5	2	0	-4	-13
COc1ccccc1CNc1cncnc1	4.8	-2	-23*	-18*	-4.2*	2.0	nt	5	-5	-4
CCn1c(SCC(=O)Nc2nc3ccccc3s2)nc2c(c1=O)SC(C)C2 (stereo not drawn)	-3.3	3	nt	nt	nt	0.2	34	-11	-5	nt
O=C(C1CC(c2cccc(Br)c2)=NO1)N1CCc2ccccc2C1 (stereo not drawn)	0.8	-5	nt	nt	nt	-1.4	6	4	15	-11
CCOc1ccc(NS(=O)(=O)c2cc(NC(=O)c3ccc(C)cc3)ccc2Cl)cc1	2.0	28	nt	nt	nt	-0.6	nt	13	0	17
COc1ccc(NC(=O)Cn2cnc3sc(C)c(S(=O)(=O)N4CCOCC4)c3c2=O)cc1Cl	-4.7	0	14	10	3.7	-0.2	nt	12	-8	-1
CCOc1ccc(OCCCCN(C)C)cc1	3.6	3	nt	nt	nt	0.8	0	2	-4	-2
CC1(C)CNC(=O)c2sc(NC(=O)c3ccccc3Cl)nc2C1	-0.8	0	1	6	-1.5	1.9	-18	-4	15	-4
COC1CCN(C(=O)C2CCC(=O)N(CCc3cccc(F)c3)C2)CC1 (stereo not drawn)	3.4	nt	-3	0	-0.1	0.7	34	-9	2	2
Cc1ccccc1N(CC(=O)NC1CCCCC1)C(=O)CCC(=O)Nc1nccs1	0.5	3	3	-3	0.4	0.0	7	10	-1	7
CC(=O)c1ccc(N(C(=O)Cc2c[nH]c3ccccc23)C(C(=O)NC2CCCCC2)c2cccs2)cc1 (stereo not drawn)	2.9	-2	nt	nt	nt	-0.3	-14	31	33	-6
O=C(NCc1ccco1)C(c1ccccc1F)N(CC1CCCO1)C(=O)Cn1nnc2ccccc21 (stereo not drawn)	-44	-4	nt	nt	nt	-0.2	nt	11	0	-7
Cn1cc(CNC(=O)C2CCC(=O)N(Cc3ccc(Cl)cc3)C2)cn1 (stereo not drawn)	-1.2	-8	13	6	0.7	0.7	-2	-15	5	3
O=C(CN1C(=O)/C(=C2\SC(=S)N(CCS(=O)(=O)O)C2=O)c2ccccc21)Nc1cccc(Br)c1	5.1	-4	-5	6	-1.9	1.3	nt	-2	2	-15
CC(C)(C)OC(=O)C[C@H]1C/C=C\C[C@@H](CC(=O)NCCO)C(=O)NC[C@H](c2ccccc2)OC1=O	nt	-3	-1	-8	-7.0	0.7	0	nt	nt	5
CC1=CC2=NC(=O)CC(C)(C(=O)N(CC(=O)NC3CCCC3)c3ccccc3F)N2C=C1 (stereo not drawn)	4.5	2	16	16	2.6	0.3	2	-1	4	0
C=CCOc1ccccc1CNCCc1ccc(S(N)(=O)=O)cc1	6.0	nt	5	5	-0.5	-0.4	-2	-7	7	-2
C/C(=N\Nc1ccc([N+](=O)[O-])cc1)c1cccc(N)c1	-2.2	2	-27	-23	-6.1	-0.4	99*	13	-18	2
CC(=O)N1N=C(c2cccc([N+](=O)[O-])c2)OC1c1ccc(Cl)cc1Cl (stereo not drawn)	-3.8	-5	nt	nt	nt	-0.3	1	12	11	-7
COc1ccc(N(C(=O)C(C)C)S(=O)(=O)c2ccc3ccccc3c2)cc1	-2.5	4	-24	-35	2.0	0.3	nt	4	-4	2
O=C(Nc1ccccc1)c1cnc(-c2ccccc2)nc1-c1ccccc1	2.5	10	nt	nt	nt	-0.9	-16	23	6	-13
Cc1ccnc2nc(C(=O)OCC(=O)c3ccc(NC(=O)CC(C)C)cc3)nn12	1.8	-4	12	27	1.7	0.0	-4	nt	nt	1
COc1ccc(CCN2C(=O)CC(NNC(=O)c3ccc(F)cc3)C2=O)cc1OC (stereo not drawn)	-3.2	-2	nt	nt	nt	0.3	-12	-2	-16	4
O=C(NNC(=O)c1cc(-c2ccccc2)nc2ccccc12)c1csc(N2CCOCC2)n1	3.5	8	-37*	-13*	11*	-0.7	-4	0	48	8
Cc1ccc(S(=O)(=O)N2CC(C)N(C(=O)N3CCOCC3)C2C)cc1 (stereo not drawn)	1.0	nt	15	4	-1.0	-1.6	1	-10	-5	-2
COc1ccc(C(CNC(=O)c2cccc(S(=O)(=O)N3CCOCC3)c2)N2CCCC2)cc1 (stereo not drawn)	11*	-7	nt	nt	nt	0.5	2	nt	nt	3
COc1ccc(CCNC(=O)c2c(O)c3ccccc3[nH]c2=O)cc1OC	2.4	-20	7	17	1.5	0.2	-1	-1	4	-11
NC(=O)NCC1CC1	0.3	-6	12	7	-7.1	0.6	-2	-14	-1	-4
Cc1ccnc2nc(C(=O)OCC(=O)N(Cc3ccccc3)C(C)C)nn12	3.0	2	0	3	0.0	-0.1	25	nt	nt	0
CC1=NN(C(N)=S)C(=O)C1N=Nc1cc(Cl)ccc1Cl (stereo not drawn)	-6.1	9	2	7	-2.4	0.0	34	0	11	9
COC(=O)C1CCN(C(c2cc(OC)c(OC)c(OC)c2)c2sc3nc(C)nn3c2O)CC1 (stereo not drawn)	4.6	-3	5	6	-5.9	1.1	-13	-5	-3	1
COc1ccc(NC(=O)COc2cccc(-n3cnnn3)c2)cc1	4.0	2	5	12	0.5	0.5	-2	4	12	3
COc1cc(NC(=S)NCc2ccco2)c(OC)cc1Cl	0.9	-7	5	3	1.6	1.3	nt	-13	?	5

(list continues)
SMILES	LANA-H2A inh	Beta cell apopt	rRNA inh HTS	rRNA inh HTS OD600	rRNA inh HTS RFP	A1 inh	ALR inh	T cruzi repl	Calb FLC	B2AR ag
COc1ccc(CCN(C(=O)c2ccco2)C(C(=O)NC2CCCC2)c2ccncc2)cc1OC (stereo not drawn)	-1.1	-2	8	13	2.8	0.7	-9	0	-28	3
Cc1cc(C(=O)c2ccccc2)c(NC(=O)CN2CCOCC2)s1	2.7	-7	nt	nt	nt	0.6	0	9	13	-11
COc1ccccc1NC(=S)N1CCC(c2nc3cc(C)c(C)cc3[nH]2)CC1	3.2	1	-3	-3	-1.7	-0.2	-5	14	-5	-5
COc1ccc(CNC(=O)c2cc3c(=O)n4ccccc4nc3n(CC3CCCO3)c2=N)cc1 (stereo not drawn)	-2.1	1	nt	nt	nt	-0.1	0	25	-14	3
CCCCN1CCNC[C@@H]1c1ccccc1	1.5	-12	12	27	-8.8	-0.8	-5	nt	nt	11
Cc1ccc(-c2ccc(CCC(=O)O)n2CC(=O)O)cc1	-2.1	0	nt	nt	nt	0.6	51	-6	-1	3
CC1CCN(Cc2c(C(=O)N/N=C/c3cc(Cl)ccc3O)nnn2-c2nonc2N)CC1	3.3	88*	6	14	-2.5	1.0	nt	61*	?	10
